Choline anaer gr: inhibitors of anaerobic choline-dependent gram-negative bacterial growth | Gram-negative bacterium anaerobic choline minimal medium, absorbance growth; hits give low values; many inactives read as strong as hits in the columns shown | calls only | 55,000 compounds, 0.2% hits;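 active means growth z-score on choline under -2 at 7 or 20 h with little or no fall on glycerol, limits in tiers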;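 further: stock transfer was 300 nL into about 50 µL; the organism is E. coli; final concentration not given here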
Choline anaer gr early: further read-out of Choline anaer gr, marked with its call; z-score; measured here: choline growth z-score, timepoint 1;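 score of optical density at 7 h as mean of two plates; lower means less growth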
Numbers without * were called inactive; i = inactive; & = joins results of further samples.

SMILES	Choline anaer gr	Choline anaer gr early
COc1ccc(OC)c(S(=O)(=O)N2CCc3nc[nH]c3C2)c1	i	-0.12
Cc1nn(-c2ccc(-c3noc(C4CC4)n3)cc2)cc1C(=O)Nc1ccc2c(c1)OCCO2	i	1.1
COc1cc(OC)cc(-n2nnc(-c3nsc(Nc4ccc(OC)c(OC)c4)n3)c2C)c1	i	1.1
O=C(Cn1cnc2nc3c(cc2c1=O)CCCC3)Nc1ccc(F)cc1F	i	-0.78
Cc1nn(-c2nc3ccccc3s2)c2c1C(c1ccncc1)CC(=O)N2 (configuration not stated)	i	0.23
CCOC(=O)c1cc(C)nc2c1c(=O)n(Cc1ccc(Br)cc1F)c(=O)n2C	i	0.25
CCOCCCNC(=O)c1ncn2c1C(=O)N(CC)C(C)(C(=O)NC1CCCC1)C2 (configuration not stated)	i	-0.57
O=c1cc2nc(-c3ccccc3Cl)nc(SCc3cc(=O)n4c5c(sc4n3)CCCC5)n2[nH]1	i	-0.68
COc1cc(OC)cc(N2C(=O)c3cc4ccsc4n3CC2(C)C(=O)NCc2ccccc2OC)c1 (configuration not stated)	i	-0.15
Cc1csc2nc(-c3cccc(NC(=O)C4CCCCC4)c3)cn12	i	0.22
Cc1cc(F)c(Nc2ncnc3cc(OCc4ccccc4)ccc23)cc1O	i	0.53&0.19
NC(=O)c1nc(-c2cccc(F)c2)nc2c1[nH]c(=O)n2CC1CCCO1 (configuration not stated)	i	0.4
COc1cccc(N2C(=O)c3cc4sccc4n3CC2(C)C(=O)NC2CCCCC2)c1 (configuration not stated)	i	0.76
CC1CN(c2ccc(Br)cc2)c2nc3c(c(=O)n(CC(=O)O)c(=O)n3C)n2C1 (configuration not stated)	i	-0.29
COc1ccc(S(=O)(=O)N(C(=O)c2ccc(Cl)cc2)c2ccc3oc(=O)sc3c2)cc1	i	1.4
COC(=O)c1sccc1NC(=O)N1CCCC1c1ccc(F)cc1 (configuration not stated)	i	0.6
CC1(C(=O)NC2CCCCC2)Cn2c(cc3sccc32)C(=O)N1C1CCCCC1 (configuration not stated)	i	-0.22
O=C(C1CCN(c2nc3ccccc3n3cccc23)CC1)N1CCN(c2ccccc2)CC1	i	0.68
CCCCC[C@H](O)/C=C/[C@H]1CC[C@H](O)[C@@H]1C/C=C\CCCC(=O)O	i	0.27
Cc1cccc(CNC2=NCCNC23CCN(S(=O)(=O)c2ccc(C)cc2C)CC3)c1	i	-0.61
CCOc1ccc(-c2[nH]nc3nc(-c4cccc(OC)c4)cc(C(=O)O)c23)cc1	i	1.1
Cc1ccc(NC(=O)Nc2nnc(-c3cc4ccccc4o3)o2)cc1C	i	1.2
COc1ccc(C2CC(=O)Nc3c2c(C)nn3-c2nc(C)cc(C)n2)cc1 (configuration not stated)	i	-0.76
CC(C)(C)C(=O)N1CCCC1c1ccc(F)cc1 (configuration not stated)	i	0.99
Cc1cc(C)c(S(=O)(=O)Nc2ccc3nc(N4CCN(C)CC4)cc(C(=O)O)c3c2)c(C)c1	i	1

Two records drawn at random from the list so far, as already listed:
SMILES	Choline anaer gr	Choline anaer gr early
O=C(Cn1cnc2nc3c(cc2c1=O)CCCC3)Nc1ccc(F)cc1F	i	-0.78
COc1cc(OC)cc(-n2nnc(-c3nsc(Nc4ccc(OC)c(OC)c4)n3)c2C)c1	i	1.1

Going on with the list:
SMILES	Choline anaer gr	Choline anaer gr early
Cc1ccc(Cl)cc1N1CCN(C(=O)CCc2nnc3c4cc(-c5ccccc5)nn4ccn23)CC1	i	-1.3
O=C(Cn1nc(C(=O)N2CCCC2)c2ccccc21)Nc1ccc(F)c(Cl)c1	i	0.64
Cc1sc(NC(=O)C(C)(C)C)nc1-c1ccc2c(c1)NC(=O)C(C)O2 (configuration not stated)	i	-0.3
O=C1Cc2cc(S(=O)(=O)N3CCN(c4cccc(Cl)c4)CC3)ccc2N1	i	0.65
Cc1ccc(NC(=O)c2cncc(NS(=O)(=O)c3ccc(F)cc3)c2)cc1	i	1
O=C(NCc1cccnc1)c1ccc(CN2C(=O)C3CCCN3C(=O)c3ccccc32)cc1 (configuration not stated)	i	-0.22
O=C(CSc1nc2ccccc2nc1Cc1ccccc1)Nc1nccs1	i	1.7
CCOc1ccc(NC(=O)N2CCN(CC(=O)c3c(C)n(C)c4ccccc34)CC2)cc1	i	0.01
CCc1nc2nc3c(c(Nc4cc(C)cc(C)c4)n2n1)CCC3	i	0.55
C#CCN(C)CCCOc1ccc(Cl)cc1Cl	i	-0.52&-0.23&-1.1
O=C(CN1c2ccc(F)cc2-c2ccccc2S1(=O)=O)NCCSC1CCCCC1	i	1.1
COc1ccc(OCc2nn3c(COc4ccc(F)cc4)nnc3s2)cc1	i	-1.6
CC(C)CCNC(=O)c1cn(C)c2c(=O)n(-c3ccccc3)c(=O)[nH]c12	i	-0.47
CCOc1ccccc1NC(=O)Nc1ccccc1SCc1cc(=O)n2oc(C)cc2n1	i	0.34
CNC(=O)Nc1ccc2sc(C(=O)OC)c(OC)c2c1	i	-0.65
COc1ccc(S(=O)(=O)c2c(C)cc(C)n(CC(=O)Nc3oncc3-c3ccccc3)c2=O)cc1	i	1.3
COc1ccc(N2CCN(C(=O)c3cc(S(=O)(=O)N4CCC(C)CC4)cn3C)CC2)cc1	i	1.2
Cc1ccc(C)c(CSc2nc3c(-c4ccccc4)c[nH]c3c(=O)[nH]2)c1	i	-0.19
O=C1OC(C(=O)O)Cc2ccc(Cl)cc21 (configuration not stated)	i	0.03
CCOC(=O)c1c(NC(=O)Cn2c(-n3nc(C)cc3C)nc(C)c(C)c2=O)sc2c1CCC2	i	-0.75
Cc1cc(-c2nnc3sc(-c4cc(C)on4)nn23)n[nH]1	i	-0.64
CCc1ccc(NC(=O)c2cc(S(=O)(=O)N3CCC(Cc4ccccc4)CC3)ccc2F)cc1	i	1.5
Cc1csc(-n2[nH]c(C)c(CC(=O)Nc3ccc(Br)cc3)c2=O)n1	i	-0.72
CNc1nc(Nc2cccc(F)c2)c2cnn(-c3ccccc3)c2n1	i	-0.7
CCOc1ccc(-c2cc3c(SCC)nccn3n2)cc1Cl	i	1.3

The list goes on, starting with the last 5 of the part before.
Screens in order – Choline anaer gr, Choline anaer gr early
- Cc1cc(-c2nnc3sc(-c4cc(C)on4)nn23)n[nH]1
    i, -0.64
- CCc1ccc(NC(=O)c2cc(S(=O)(=O)N3CCC(Cc4ccccc4)CC3)ccc2F)cc1
    i, 1.5
- Cc1csc(-n2[nH]c(C)c(CC(=O)Nc3ccc(Br)cc3)c2=O)n1
    i, -0.72
- CNc1nc(Nc2cccc(F)c2)c2cnn(-c3ccccc3)c2n1
    i, -0.7
- CCOc1ccc(-c2cc3c(SCC)nccn3n2)cc1Cl
    i, 1.3
- COc1ccc(NC(=O)c2nnn(Cc3nc(-c4ccc(C)cc4)oc3C)c2C)cc1
    i, 0.35
- C=CCn1c(=O)c(N2CCC(NC(=O)NCC3CCCO3)CC2)nc2cccnc21 (configuration not stated)
    i, 0.63
- Cc1nnc(-c2cc(S(=O)(=O)N3CCN(C(c4ccc(F)cc4)c4ccc(F)cc4)CC3)c[nH]2)o1
    i, 0.41
- COc1ccc(NC(=O)C2CCN(c3cc(C)nc4cc(-c5ccc(C)cc5)nn34)CC2)cc1OC
    i, -0.96
- Cc1ccc(C2Nc3ccccc3-n3c(-c4ccccc4)c4c(=O)n(C)c(=O)n(C)c4c32)c(O)c1 (configuration not stated)
    i, 0.79
- CCN(CC)C(=O)c1ccc(-c2nc3cc(NS(=O)(=O)c4cc(F)ccc4F)ccc3n2C)cc1
    i, 0.81
- Cn1c(CCc2ccccc2)nc2cc(NC(=O)CCC3CCCC3)ccc21
    i, 0.55
- Cc1csc(-c2cc(S(=O)(=O)N3CCCCCC3)c(C)n2C)n1
    i, -0.6
- CCN1CCN(C(=O)c2sc(-n3nc(C)c(Cc4ccccc4)c3C)nc2C)CC1
    i, -1.3
- CCOc1ccc(-c2csc(-c3nc(-c4ccc(C)cc4)c(C)s3)n2)cc1
    i, -0.7
- CCOC(=O)CSC1=NS(=O)(=O)c2ccccc2N1
    i, 0.99
- O=C(CSc1nc2ccccc2c(=O)[nH]1)Nc1cccc(Cl)c1
    i, 0.54
- CCC(C)NC(=O)C1CCCN1S(=O)(=O)c1cc2c(cc1C)NC(=O)CO2 (configuration not stated)
    i, -0.17
- CCCNC(=O)CN1C(=O)C2CCCCN2c2ccc(S(=O)(=O)N(C)C)cc21 (configuration not stated)
    i, 0.2
- Cc1cccc(-c2nc(C(N)=O)c3c(n2)n(-c2ccc4c(c2)OCO4)c(=O)n3C)c1
    i, -0.11
- CCCc1cc(Sc2ccc(NC(=O)Nc3ccc(Br)cc3)cc2)n2ncnc2n1
    i, 1.1
- COc1ccc2cc(C(C)C(=O)O)ccc2c1 (configuration not stated)
    i, 0.25
- CCN1CCN(C(=O)N[C@@H](C(=O)N[C@@H]2C(=O)N3C(C(=O)O)=C(CSc4nnnn4C)CS[C@H]23)c2ccc(O)cc2)C(=O)C1=O
    i, -0.9&-1.3
- Cc1ccc(C)c(N2CCN(S(=O)(=O)c3cc(-c4csc(C)n4)sc3C)CC2)c1
    i, -0.55
- Clc1ccc(-c2noc(-c3ccc(NC4CCCC4)nn3)n2)cc1
    i, 1.9

Exported with each value named: entries from further up
structure: COC(=O)c1sccc1NC(=O)N1CCCC1c1ccc(F)cc1 (configuration not stated)
  Choline anaer gr = i
  Choline anaer gr early = 0.6
structure: CC1(C(=O)NC2CCCCC2)Cn2c(cc3sccc32)C(=O)N1C1CCCCC1 (configuration not stated)
  Choline anaer gr = i
  Choline anaer gr early = -0.22

(further entries)
Screens in order – Choline anaer gr, Choline anaer gr early
- CCn1c(C(=O)Nc2cccc(C)n2)cc2c(=O)oc3ccccc3c21
    i, 2.1
- CN(C)c1ccc(C(CNC(=O)c2ccccc2Br)N2CCc3ccccc3C2)cc1 (configuration not stated)
    i, 0.63
- CCNC(=O)c1nn(-c2ccc(C)cc2)nc1CO
    i, -1.8
- COc1ccc(N2C(=O)c3cc4ccccc4n3CC2(C)C(=O)NC2CCCCC2)c(OC)c1 (configuration not stated)
    i, 0.98
- CCOc1ccccc1N(Cc1nc2nc(C)cc(=O)n2[nH]1)C(=O)COc1ccccc1
    i, -0.44
- Cc1c(C(=O)NCC(c2cccs2)N2CCCC2)oc2ccc(Cl)cc12 (configuration not stated)
    i, 0.14
- CC(=O)Nc1ccccc1-c1nnc(SC(C)C(=O)Nc2cccc(Cl)c2C)[nH]c1=O (configuration not stated)
    i, 0.54
- CCSc1nccn2nc(-c3ccc(Cl)cc3)cc12
    i, 1
- CCNC(=O)C1=C(C)OCCS1
    i, 0.31
- CCOC(=O)c1[nH]c(C)c(CN(C(=O)Nc2cc(OC)ccc2OC)C2CCCCC2)c1C
    i, -0.21
- COc1cc(C2CC(=O)Nc3nc(N)[nH]c(=O)c32)ccc1O (configuration not stated)
    i, -1.6
- C=C(C)Cn1c(CCNC(=O)COc2ccccc2)nc2ccccc21
    i, -0.53
- CCOc1ccc(CCN2C(=O)Cn3cccc3C2C(=O)NC2CCC(C)CC2)cc1 (configuration not stated)
    i, -0.55
- O=S(=O)(Nc1cccnc1)c1ccc(-n2cccn2)cc1
    i, -0.27
- Nc1cc(C2CCN(C(=O)C3CCC3)CC2)no1
    i, -0.52
- C=Cc1ccc(Cn2c(=O)c3cnc(-c4ccc(Cl)cc4)nc3n(CC)c2=O)cc1
    i, -0.32
- COc1cc(OC)cc(C(=O)Nc2nnc(SCc3cc(=O)n4oc(C)cc4n3)s2)c1
    i, 0.43
- O=C(Nc1ccc2c(c1)OCO2)c1nnc(C(=O)N2CCCC(C(=O)NC3CCCC3)C2)s1 (configuration not stated)
    i, 0.36
- Clc1ccc(-c2ccc(CNCCCn3ccnc3)o2)cc1
    i, -1.2
- COc1ccc(NC(=O)C2CCN(S(=O)(=O)c3ccc4[nH]c5c(c4c3)CCCCC5)CC2)cc1
    i, 1.3
- COc1ccc(N2CCN(C(=O)c3cnc4sc(C)c(C)n4c3=O)CC2)cc1
    i, 1.4
- CC1CCN(C(=O)c2ccc(N3CCNCC3)c(NS(=O)(=O)c3ccc(F)cc3)c2)CC1
    i, -0.3
- COc1ccc(C(CNc2nn3cnnc3c3ccccc23)N2CCOCC2)cc1 (configuration not stated)
    i, 0.14
- O=C(O)C1CSC(c2ccc(OCc3cccc(F)c3)cc2)N1 (configuration not stated)
    i, -0.84
- COC(=O)c1sccc1NC(=O)Cn1ccn2nc(-c3ccc4c(c3)OCO4)cc2c1=O
    i, 1.6
- O=C(CCC(=O)N1Cc2ccccc2Oc2ncccc21)NC1CCCC1
    i, -0.73
- CCCCC[C@@](C)(O)/C=C/[C@H]1C=CC(=O)[C@@H]1C/C=C\CCCC(=O)O
    i, 0.66
- Cc1csc(NC(=O)CSc2nc(=O)n(Cc3ccncc3)c3c2CCC3)n1
    i, 0.75
- COc1ccc(S(=O)(=O)Nc2cccc(N3CCCS3(=O)=O)c2)cc1F
    i, -0.47
- COc1ccc(S(=O)(=O)N2CC(OCc3ccc(F)cc3)C2)cc1OC
    i, -0.36
- O=C(CCc1nc(CSc2nc3ccccc3o2)no1)Nc1ccc(Cl)cc1F
    i, 0.28
- Cc1ccccc1C(=O)N1CCC(c2noc(-c3ccc(S(=O)(=O)N4CCCC4)cc3)n2)CC1
    i, 0.62
- Cc1nc(CCNC(=O)[C@H]2CSCN2S(=O)(=O)c2cnn(C(F)F)c2C)cs1
    i, 0.49
- Cc1cc(C2CCCN2C(=O)Nc2ccc3c(c2)OCO3)on1 (configuration not stated)
    i, -0.9
- Cc1cc2c(cc1C)NC1(CCCCCC1)C(=NCc1ccccc1F)N2
    i, -0.52
- FC(F)(F)c1ccccc1-n1ccnc1
    i, 0.66&-1.3&-0.34
- CCOC(=O)c1cnn2c(-c3ccc(C(C)C)cc3)ccnc12
    i, -0.22
- O=C(CCC(=O)N1CCc2cc(S(=O)(=O)N3CCc4ccccc43)ccc21)N1CCOCC1
    i, 0.52
- O=c1[nH]c2ccccc2n1C1CCN(S(=O)(=O)c2ccc(-n3cnnn3)cc2)CC1
    i, -2.5
- Cc1occc1-c1nnc(SCC(=O)NCCC2=CCCCC2)o1
    i, -1.8

Assay outcomes as filed in PubChem.

Only part of the results is shown; the hit share may differ from the screen's.
